Source: PubChem
Rango complex inh = inhibitors of Rango-importin beta complex formation. Q14974. Rango CFP/YFP FRET sensor + importin beta, 45 min. Potency, µM (titrated, usually from 92.2 µM), without a hit: at the highest dose inhibition of complex formation. hit rate 0.031% among 340,000. AID 540263; active = rising FRET ratio curve, often small or poorly fitted; inconclusive = mostly compound fluorescence or quenching in the first reads; inactive = flat curves in all reads;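 further: potency means the concentration at half of the fitted maximal effect; 0% = DMSO wells and 100% = buffer wells lacking importin beta; nearly all actives have a fitted effect of over 15% in size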
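Inhibition scored from the CFP 486 nm/YFP 530 nm FRET ratio 45 min after adding 0.125 microM importin beta to 50 nM Rango biosensor preincubated 5 min with compound (room temperature, PBS with DTT, Tween-20, BSA). No-importin wells as positive control.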
GLA inh pH 4.5 = inhibitors of human alpha-galactosidase A at pH 4.5. 230,000 tested, under 10 active. activity change, negative = inhibition, % at 105 µM. purified enzyme, 4-MU-alpha-Gal fluorescence, pH 4.5. P06280; inconclusive = small, poorly fitted or top-dose-only inhibition, or a rising curve; inactive = flat fitted curve, though single readings scatter; no compound was filed as active;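 further: 0% = full activity with enzyme and -100% = basal without enzyme; dose as in the result columns while the protocol names 77 µM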
Target sequence (P06280 whole entry, looked up): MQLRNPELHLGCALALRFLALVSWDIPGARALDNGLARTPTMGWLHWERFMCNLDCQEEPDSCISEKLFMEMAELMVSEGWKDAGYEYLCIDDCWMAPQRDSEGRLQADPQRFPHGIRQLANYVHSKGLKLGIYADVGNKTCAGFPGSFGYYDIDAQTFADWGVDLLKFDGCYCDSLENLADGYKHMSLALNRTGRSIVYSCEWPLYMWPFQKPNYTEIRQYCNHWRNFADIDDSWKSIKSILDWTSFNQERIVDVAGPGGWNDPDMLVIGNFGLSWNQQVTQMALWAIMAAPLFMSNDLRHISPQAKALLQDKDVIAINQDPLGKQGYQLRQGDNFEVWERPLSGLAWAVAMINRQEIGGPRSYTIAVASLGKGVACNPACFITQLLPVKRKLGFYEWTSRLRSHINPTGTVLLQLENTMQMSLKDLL
miR-21 FLuc = miR-21 reporter, rising signal; HeLa miR-21 FLuc reporter, luciferase, 48 h; Potency, µM (highest dose often 38.3 µM), for inactives: at the highest dose reporter change, positive = more light; 340,000 tested, under 10 active; AID 2288; active = well fitted rising curve with a large enough effect; inconclusive = small, poorly fitted or top-dose-only effect; inactive = no such curve, though single readings can be large or run the other way;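 further: % of control where 0% means no effect; miR-21 action dims this reporter so a rising signal means less miR-21 action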
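Compounds were titrated across several concentrations (up to approximately 40 uM) and incubated 48 hours with HeLa miR-21-FLuc reporter cells (miR-21 target sequence downstream of FLuc, endogenous miR-21). Readout was firefly luciferase luminescence after lytic detection reagent.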
Rango dissoc inh = inhibition of RanGTP-driven Rango-importin beta dissociation; O95149+P62826; Biochemical FRET Rango-importin beta, RanGTP-induced dissociation; Potency, µM (titrated, usually from 46.1 µM), without a hit: at the top dose activity change, negative = inhibition; hit rate 0.071% among 340,000; active means falling FRET ratio curve, often poorly fitted, with flat reads before Ran was added; inconclusive means other falling curves, or compound fluorescence or quenching; inactive means flat or rising ratio curve;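 further: potency means the concentration at half of the fitted maximal effect; % of control where 0% means no effect; nearly all actives have a fitted effect of over 45% in size; -100% = wells without RanGTP and RCC1; the record marks most hits as doubtful in a second field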
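Two FRET readings bracket the reaction: one 5 min after compound meets Rango–importin beta, another 45 min after RanGTP-RCC1 (0.6 uM Ran, 0.2 uM RCC1, 2 mM GTP) is added. Only the second defines inhibition.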
Numbers without * were called inactive; u = inconclusive; x = not tested or not shown; & = joins results of further samples; [ ] = another dose, or the depositor's remark. A portion of the library (hit frequency here may not be typical).

SMILES	Rango complex inh	GLA inh pH 4.5	miR-21 FLuc	Rango dissoc inh
O=C(c1ccc(COc2c(F)c(F)cc(F)c2F)o1)N1CCN(c2ccc(Cl)cc2)CC1	3.5%	-6	14%	-3%
O=C(CCCCn1c(=O)[nH]c2ccsc2c1=O)NCc1cccnc1	0.9%	6	-1%	1%
O=C(CCNS(=O)(=O)c1cccc2nonc12)NC1CCCc2ccccc21 (stereo not drawn)	1.2%	-4	-1%	2%
CCC1=C(OC(=O)N(CC)CC)N2C(=O)OC(=NCC(=O)OC)[C@]2(Cc2ccccc2)[C@H]2C1=CC[C@H]1C(=O)N(c3ccccc3)C(=O)[C@H]12	2.2%	-7&-5	1%	-18%
CC(=O)c1ccc(OCCCC(=O)OCC(=O)Nc2ccc3[nH]c(=O)[nH]c3c2)cc1	-4.5%	x	x	8%
CCS(=O)(=O)c1nnnn1-c1ccccc1S(C)(=O)=O	-2.8%	-5	17%	12%
CCCCS(=O)(=O)N1CCCC(C(=O)NCC2CCCO2)C1 (stereo not drawn)	3.7%	x	0%	1%
O=C(c1ccc([N+](=O)[O-])cc1)N1CCN(Cc2ccccc2[N+](=O)[O-])CC1	2.3%	6	5%	8%
Nn1c(SCC(=O)NCCC2=CCCCC2)nnc1C(F)(F)F	-0.9%	1	1%	1%
O=C(CCn1c(=O)[nH]c2ccccc2c1=O)N1CC=C(c2ccccc2)CC1	1.7%	-4	0%	-12%
CCC(Sc1ccc2nnc(-c3ccc(F)cc3)n2n1)C(=O)O (stereo not drawn)	-0.5%	1	2%	16%
COCCNC(=S)N/N=C/c1ccc(N2CCOCC2)cc1	-4.9%	9	27%	-6%
CCOC(=O)C(=CNc1ccc(O)c(C(=O)OC)c1)C(=O)OCC	-2.0%	x	x	8%
CC(=O)Nc1ccc2c(c1)ncn2C1CCCCC1	0.0%	x	x	-3%
CC1CCN(S(=O)(=O)c2ccc3c(c2)N(CC(=O)NCCCN(Cc2ccccc2)C(C)C)C(=O)CO3)CC1	0.9%	x	14%	-15%
Cc1ccc(CN2CCN(Cc3ccc(-n4cccn4)cc3)CC2CCO)cc1 (stereo not drawn)	-2.0%	-2	0%	-14%
COc1cc(C2c3cc4c(cc3OC(NCc3ccccc3)C2C)OCO4)cc(OC)c1OC (stereo not drawn)	0.8%	x	x	26%
COc1ccc(Br)cc1C(=O)Nc1cccc(C)c1C	1.0%	-1	-4%	4%
COc1ccc(S(=O)(=O)N2CCOCC2)cc1NC(=O)c1ccc(Cl)cc1	0.0%	x	x	-1%
CN(C)c1ccc(C=c2c3ccccc3n3c2c2ccccc2[n+]3C)cc1	-0.5%	x	x	-6%
NS(=O)(=O)c1ccc(CNC(=O)Cc2ccsc2)cc1	-0.3%	x	x	-6%
CC12CC(c3ccccc3O1)C(/C(N)=N/NC(=O)c1ccc(F)cc1)C(=O)N2 (stereo not drawn)	-2.4%	-14	8%	2%
CN(C(=O)COC(=O)c1nc(Cl)ccc1Cl)C1CCS(=O)(=O)C1 (stereo not drawn)	-0.4%	x	0%	24%
O=C(COc1ccc2ccccc2c1)N/N=C/C1CC=CCC1 (stereo not drawn)	-0.8%	8	-5%	0%
Cc1cc(C)cc(N(CC(=O)NCc2ccco2)S(=O)(=O)c2c(C)noc2C)c1	-2.4%	-2	-7%	-19%

Other compounds:
SMILES	Rango complex inh	GLA inh pH 4.5	miR-21 FLuc	Rango dissoc inh
CCN(CC)C(=O)N1CCC(NC(=O)c2ccccc2)CC1	0.3%	3	1%	-8%
COc1ccc(N2CCN(S(=O)(=O)/C=C/c3ccccc3)CC2)cc1	2.3%	-2	-1%	8%
Cn1cc(C2OC(=O)c3ccccc32)c2ccccc21 (stereo not drawn)	-2.5%	x	x	-1%
COc1ccc2[nH]c3c(NCCN(C(C)C)C(C)C)ncnc3c2c1	-3.7%	7	-17%	-7%
Cc1oc(-c2ccccc2)nc1Cn1cccc1C1=NC(c2ccccc2)CO1 (stereo not drawn)	-1.5%	13	11%	-9%
Cc1cc(C)cc(OCC(=O)OCC(=O)N(C)CC(=O)Nc2ccc(F)cc2)c1	1.1%	x	x	-10%
O=C(Nc1cccc(C(F)(F)F)c1)NC1CCCCC1	0.5%	-3	-2%	2%
COc1cccc2sc(N(CCN(C)C)C(=O)c3ccc(S(=O)(=O)N4CCCC4)cc3)nc12	0.9%	x	-2%	3%
CCn1c(SCC(=O)c2cc(OC)ccc2OC)nnc1-c1ccncc1	0.8%	x	x	0%
CC(=O)c1cccc(N(CC(=O)NCC2CCCO2)C(=O)CCC(=O)Nc2cc(C)on2)c1 (stereo not drawn)	-0.4%	1	-2%	-5%
CCOc1ccc(OCCNC(=O)c2ccc3c(c2)nnn3CC)cc1	-0.4%	x	x	1%
CCC(C)NC(=O)CC(NS(=O)(=O)c1ccc(NC(C)=O)cc1)C(C)C (stereo not drawn)	-2.4%	-8[21.1 µM]	1%	-8%
O=C(COC(=O)/C=C/c1ccccc1)NC1CCS(=O)(=O)C1 (stereo not drawn)	-1.3%	x	x	0%
COc1ccc(/C=N/NS(=O)(=O)c2ccc(C)cc2)cc1OC(=O)c1ccccc1	-1.5%	-3	-6%	2%
Cc1ccc(NC(=O)c2ccc3c(=O)n4c(nc3c2)CCCCC4)cc1F	-0.1%	x	-6%	-12%
CC(C)(C)C(=O)CN1C(=O)NC(c2ccccc2)(c2ccccc2)C1=O	-0.1%	x	2%	6%
CC(C)CCn1nnnc1CN1CCN(C(=O)c2ccco2)CC1	2.2%	x	-5%	1%
COc1ccc([N+](=O)[O-])cc1NC(=O)c1ccc(N(Cc2ccccc2Cl)S(C)(=O)=O)cc1	-0.1%	-1	2%	-2%
O=C(CCN1CCOCC1)N/N=C/c1cc([N+](=O)[O-])ccc1OC(F)F	0.2%	4	-3%	-3%
O=C(CN1C(=O)C2C3C=CC(C4CC34)C2C1=O)NCc1ccco1 (stereo not drawn)	-0.9%	11	-1%	32%
Cc1nn(Cc2ccccc2)c(C)c1NS(=O)(=O)c1ccccc1	1.7%	x	0%	19%
CC1(C)CC2(CC(c3ccccc3)Oc3cc(O)ccc32)NC(=O)N1 (stereo not drawn)	x	3	5%	x
COc1ccc(CCNc2ccc(C(CC(N)=O)NC(=O)c3ccc(Br)cc3)cc2[N+](=O)[O-])cc1 (stereo not drawn)	11%	7	2%	2%
COc1cc(-c2nc(N)n[nH]2)cc(OC)c1OC	-3.1%	3	3%	4%
O=C(CSc1ccccc1)Nc1ccc2c(c1)OCO2	1.9%	x	-63%	-7%

Next part.
SMILES	Rango complex inh	GLA inh pH 4.5	miR-21 FLuc	Rango dissoc inh
CCOc1ccc(-c2cccc(NC(=O)c3ccc(Br)o3)c2)nn1	0.0%	x	x	-7%
CC1(C)CC(=O)C(C(c2cc([N+](=O)[O-])ccc2Cl)C2C(=O)CC(C)(C)CC2=O)C(=O)C1	0.6%	x	x	-9%
CNC(=S)N1CCC(c2nc3ccccc3s2)CC1	1.2%	9	-20%	-8%
CN1CCN(c2nc3c(c(=O)n(C)c(=O)n3C)n2CCSc2nnnn2-c2ccccc2)CC1	-1.0%	0	1%	-2%
Nc1ncc(Br)cc1S(=O)(=O)NCCc1ccccc1	-1.5%	x	-1%	17%
COc1ccc(C)cc1NC(=O)c1ccc([N+](=O)[O-])cc1[N+](=O)[O-]	1.1%	7	7%	-14%
CCC1([N+](=O)[O-])COC(c2ccc(OC)cc2)OC1 (stereo not drawn)	3.7%	x	x	11%
CN(C)S(=O)(=O)c1cccc(NC(=O)COC(=O)/C=C/c2ccc([N+](=O)[O-])cc2)c1	0.2%	-1	6%	15%
Cc1cc(S(=O)(=O)Nc2cccc(Cl)c2)c(C)s1	0.0%	15	13%	8%
COc1ccc(C(CC(=O)Nc2ncccc2C)N2Cc3ccccc3C2=O)cc1 (stereo not drawn)	-3.3%	x	1%	-9%
Cc1ccc(CN2CCNC(=O)C2CC(=O)N2CCN(c3ncccn3)CC2)o1 (stereo not drawn)	-0.3%	8	1%	-10%
CCOc1ccc2nc(N(CCCN(C)C)C(=O)c3ccc(S(=O)(=O)N4CCc5ccccc5C4)cc3)sc2c1	-0.4%	x	3%	0%
CCCCCCn1c(COc2ccccc2F)nnc1SCC(=O)NC1CCS(=O)(=O)C1 (stereo not drawn)	-0.3%	x	x	0%
CCCN(CCC)CCCNC(=O)Cn1cnc2sc(C)c(S(=O)(=O)N3CCCCC3)c2c1=O	-4.0%	x	4%&7%	-12%
O=[N+]([O-])C(=C1Nc2ccccc2N1)/C(Cl)=C(/Cl)Br	-0.9%	-12	-14%	-2%
O=C(COc1ccc(Br)cc1Br)NN1C(=O)c2ccccc2C1=O	1.1%	x	x	-16%
CCC(=O)Nc1cccc(C(=O)Nc2nccs2)c1	3.6%	-1	-17%	-19%
CC(C)(C)c1ccc(/C=N/Nc2cccc(C(=O)O)c2)cc1	-2.3%	1[21.1 µM]	-52%	-23%
CNC(=S)Nc1ccc([N+](=O)[O-])cc1	4.4%	-12	7%	u
CCCNC(=O)Nc1cc(C)on1	-2.1%	2	-8%	-1%
CCN(CC)S(=O)(=O)c1ccc(Cl)c(NC(=O)CSc2nnc(-c3cccs3)o2)c1	0.7%	0	-15%	0%
CC(=O)Nc1ccc(N/C(=N\S(=O)(=O)c2ccccc2)c2ccccc2)cc1	-3.9%	x	-3%	-12%
c1ccc(-c2nnc(SCCC3OCCCO3)o2)cc1	0.8%	10	-43%	-9%
O=C(Nn1c(C2CCC2)nc2ccccc2c1=O)c1cccs1	2.4%	-7	-1%	-7%
Cc1ccccc1OCc1nc(C#N)c(N2CCCC2)o1	-1.8%	3	-19%	-5%

(more compounds)
SMILES	Rango complex inh	GLA inh pH 4.5	miR-21 FLuc	Rango dissoc inh
COc1ccc(CC(=O)Nc2ccc(OC)nc2)cc1	5.5%	-2	-9%	-13%
CCN1C(=O)[C@H]2[C@H]3CN=C(SCc4ccc(C(=O)OC)cc4)N3[C@@](CC)(C(=O)OC)[C@H]2C1=O	1.5%	x	x	1%
O=C(COC(=O)c1cccc(Br)c1)NCC1CCCO1 (stereo not drawn)	0.3%	x	x	-6%
O=c1cc(-c2ccc(O)cc2)oc2cc(O)c(C3OC(CO)C(O)C(O)C3O)c(O)c12 (stereo not drawn)	u	-9	-25%	u
COc1cccc(C(=O)NCCS(=O)(=O)N2CCOCC2)c1	4.2%	x	x	1%
COc1ccc(-n2nc(C(=O)Nc3ccc4c(c3)OCO4)c3ccccc3c2=O)cc1	-0.3%	-14	-4%	16%
On1c(-c2ccco2)nc2c1CCc1nonc1-2	6.4%	7	-1%	-19%
O=C(O)c1ccc(C(=O)Nc2cccc3ccccc23)c(C(=O)O)c1	0.3%	x	-1%	-7%

Molecules from the list above that have a nitro group on carbon:
SMILES	Rango complex inh	GLA inh pH 4.5	miR-21 FLuc	Rango dissoc inh
O=C(c1ccc([N+](=O)[O-])cc1)N1CCN(Cc2ccccc2[N+](=O)[O-])CC1	2.3%	6	5%	8%
COc1ccc([N+](=O)[O-])cc1NC(=O)c1ccc(N(Cc2ccccc2Cl)S(C)(=O)=O)cc1	-0.1%	-1	2%	-2%
O=C(CCN1CCOCC1)N/N=C/c1cc([N+](=O)[O-])ccc1OC(F)F	0.2%	4	-3%	-3%
COc1ccc(CCNc2ccc(C(CC(N)=O)NC(=O)c3ccc(Br)cc3)cc2[N+](=O)[O-])cc1 (stereo not drawn)	11%	7	2%	2%
CC1(C)CC(=O)C(C(c2cc([N+](=O)[O-])ccc2Cl)C2C(=O)CC(C)(C)CC2=O)C(=O)C1	0.6%	x	x	-9%
COc1ccc(C)cc1NC(=O)c1ccc([N+](=O)[O-])cc1[N+](=O)[O-]	1.1%	7	7%	-14%
CCC1([N+](=O)[O-])COC(c2ccc(OC)cc2)OC1 (stereo not drawn)	3.7%	x	x	11%
CN(C)S(=O)(=O)c1cccc(NC(=O)COC(=O)/C=C/c2ccc([N+](=O)[O-])cc2)c1	0.2%	-1	6%	15%
O=[N+]([O-])C(=C1Nc2ccccc2N1)/C(Cl)=C(/Cl)Br	-0.9%	-12	-14%	-2%
CNC(=S)Nc1ccc([N+](=O)[O-])cc1	4.4%	-12	7%	u
